# Compound activity deposited in PubChem BioAssay by several laboratories.
# HSV augment – HSV replication enhancement | maximum fold increase | HSV replication augmentation in cells, fold increase | 220,000 tested, 0.005% active;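 active = peak rise of 1.5-fold or more in the series; tested in PC3 cells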;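 note: first round at 10 µM; read as green reporter fluorescence; hits show the peak of a series up to 25 µM; 1 = signal of infected wells without compound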
# INS promoter inh – TRM-6 insulin promoter activity inhibition | inhibition, % at 2 µM | 130,000 tested, 0.9% active | TRM-6 cells (human fetal islet line), insulin promoter-eGFP reporter, imaging; reporter expression induced with tamoxifen;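 active = inhibition above the mean plus 3 SD, with well images judged a real hit on visual review, cut at about 60% in these data, passing the limit was not always enough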
# PKD1 kinase inh – inhibitors of human PKD1 kinase | Q15139 | PKD1 kinase fluorescence polarization assay | inhibition, %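 (about 10 µM by stock and volumes)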 | 200,000 tested, 0.056% active | AID 797;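 active = inhibition of 50% or more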;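 note: controls were vehicle for no effect and a reference inhibitor for full effect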
# RGS16-Gao – RGS16-Galphao interaction regulator (human); bead-based flow cytometry RGS16-Galphao binding, fluorescence; actives lie on both sides; binding response (% of control), % at 10 µM; O15492+P09471; 220,000 tested, 0.38% active; AID 1441;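 active = below 25% or above 175%, edge rows of some plates excepted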;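 note: Galphao activated by GDP with aluminum fluoride before binding; 100% = wells without compound and 0% = beads without RGS; some results beyond the cut were filed as inactive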
# Target sequence (O15492 whole entry, looked up): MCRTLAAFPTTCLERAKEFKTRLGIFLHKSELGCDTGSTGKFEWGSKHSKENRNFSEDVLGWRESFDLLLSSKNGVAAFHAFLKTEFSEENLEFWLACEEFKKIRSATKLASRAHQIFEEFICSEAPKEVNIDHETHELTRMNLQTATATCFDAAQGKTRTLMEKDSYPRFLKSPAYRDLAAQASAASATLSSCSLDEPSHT
# Target sequence (P09471 whole entry, looked up): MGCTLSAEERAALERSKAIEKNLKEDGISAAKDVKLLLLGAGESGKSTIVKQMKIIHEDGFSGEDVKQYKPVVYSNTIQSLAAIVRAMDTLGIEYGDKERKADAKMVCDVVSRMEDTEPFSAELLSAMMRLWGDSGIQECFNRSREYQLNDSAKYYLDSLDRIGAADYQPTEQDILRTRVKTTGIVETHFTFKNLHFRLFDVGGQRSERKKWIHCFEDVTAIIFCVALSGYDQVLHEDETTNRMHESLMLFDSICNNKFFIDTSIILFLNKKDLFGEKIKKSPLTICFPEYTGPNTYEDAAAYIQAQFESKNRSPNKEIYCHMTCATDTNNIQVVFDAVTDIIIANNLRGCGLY
# GALR2 agonist – agonists of human galanin receptor 2 (GALR2). O43603. GALR2-expressing cells, agonist activation read-out. activation, %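 (tested at 5 µM)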. 140,000 tested, 0.48% active. AID 803;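 active = above mean plus 3 SD of all compounds, about 5% in these data, not always enough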;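 note: 0% = vehicle buffer wells and 100% = reference agonist at full effect; tested in CHO reporter cells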
# Target sequence (O43603 whole entry, looked up): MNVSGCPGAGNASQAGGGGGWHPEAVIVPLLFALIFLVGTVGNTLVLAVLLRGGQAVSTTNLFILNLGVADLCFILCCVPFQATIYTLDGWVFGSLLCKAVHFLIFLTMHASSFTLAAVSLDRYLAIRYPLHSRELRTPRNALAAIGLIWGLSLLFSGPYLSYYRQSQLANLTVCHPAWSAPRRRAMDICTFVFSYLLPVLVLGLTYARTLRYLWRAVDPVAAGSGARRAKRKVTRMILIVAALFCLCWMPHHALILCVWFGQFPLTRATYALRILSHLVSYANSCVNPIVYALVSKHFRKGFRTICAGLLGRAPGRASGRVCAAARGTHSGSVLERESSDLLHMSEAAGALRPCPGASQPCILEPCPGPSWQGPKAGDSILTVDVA
# INS promoter inh cell count – also measured in INS promoter inh; calls as there; normalized cell count, %; measured here: cell count, toxicity; reference of the scale not given here;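 cells exposed to compound for 48 h; stained nuclei by imaging scaled within each plate; lower means fewer cells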
# HSV augment primary fold – second read-out of HSV augment, no call of its own (marks repeat the call); fold increase; compound at 10 µM; measured here: primary screen fold increase 10 uM; tested in PC3 cells;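 GFP signal in the first replicate; 1 = infected wells without compound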
# * hit, by the source's call; i = inactive; . = not tested or not shown.
# Key to letters: A = HSV augment; B = HSV augment primary fold; C = INS promoter inh; D = INS promoter inh cell count; E = PKD1 kinase inh; F = RGS16-Gao; G = GALR2 agonist
> COc1ccc(N=CC2=C(O)c3ccccc3C2=O)c(OC)c1
  A: i; B: 0.87; C: 14; D: 118; E: 0; F: 87; G: -0.9

> COc1ccc(C(=S)N2CCCCCC2)cc1
  A: i; B: 0.89; C: -18; D: 214; E: -8; F: 204; G: -0.1

> CN(C)/C=C/C(=O)c1cc(N2CCOCC2)ccc1[N+](=O)[O-]
  A: i; B: 0.89; C: .; D: .; E: -6; F: 98; G: .

> Cc1ccc2occ(C(c3nnnn3Cc3ccccc3)N3CCOCC3)c(=O)c2c1 (stereo not drawn)
  A: i; B: 1.1; C: -34; D: 81; E: -10; F: 89; G: -2.1

> Cc1ccc(Cn2ccc(C3CC3)n2)cc1
  A: i; B: 0.96; C: .; D: .; E: -7; F: 100; G: .

> N#Cc1c2c(c(NCc3ccco3)n3c1nc1ccccc13)CCC2
  A: i; B: 0.77; C: .; D: .; E: -6; F: 83; G: -0.9

> Cc1ccc(OCC(=O)Nc2ccc(N3CCN(C(=O)c4ccco4)CC3)cc2)cc1C
  A: i; B: 0.94; C: .; D: .; E: -5; F: 105; G: .

> O=C(CSc1nnc2ccc(-c3ccccn3)nn12)NCC1CCCO1 (stereo not drawn)
  A: i; B: 0.92; C: -32; D: 100; E: 7; F: 100; G: .

> COC(=O)Cc1[nH]nc2c1C(c1cc(OC)c(OC)c(OC)c1)C(C#N)=C(N)O2 (stereo not drawn)
  A: i; B: 0.92; C: .; D: .; E: .; F: 96; G: .

> Cc1cc2nc(C(F)(F)F)[nH]c(=O)n2n1
  A: i; B: 0.87; C: 15; D: 132; E: -3; F: 97; G: -0.5

> O=C(O)c1cccc(Cn2cc(Cl)cn2)c1
  A: i; B: 1; C: .; D: .; E: -3; F: 96; G: -0.8

> Cc1ccc(C(=O)COC(=O)CCc2nc3ccccc3[nH]c2=O)cc1C
  A: i; B: 0.94; C: 0; D: 96; E: -8; F: 109; G: -1.9

> CN(C(=O)CC1C(=O)NCCN1Cc1ccc(F)cc1)C1CCOCC1 (stereo not drawn)
  A: i; B: 1; C: .; D: .; E: .; F: 104; G: .

> O=C(COc1ccccc1)NNC(=O)c1cc2ccccc2o1
  A: i; B: 1.1; C: -4; D: 83; E: 0; F: 146; G: -1.8

> COC(=O)c1cc(OC)c(OC)cc1NC(=S)N1CCN(c2ccccc2)CC1
  A: i; B: 0.74; C: .; D: .; E: -24; F: 103; G: -2.1

> O=C(NCc1ccccn1)C1CCN(Cc2cccc(OCc3ccccc3)c2)CC1
  A: .; B: .; C: -33; D: 115; E: 5; F: 109; G: 0.8

> CCC(OCC(O)CN1CCN(CCN2C(=O)c3cccc4cccc(c34)C2=O)CC1)c1ccccc1 (stereo not drawn)
  A: i; B: 0.49; C: 14; D: 122; E: -11; F: 44; G: -0.4

> Cc1ncc(C[n+]2csc(C)c2C)c(N)n1
  A: i; B: 1; C: .; D: .; E: 4; F: 105; G: .

> COc1ccccc1N(C)S(=O)(=O)c1ccc(C(=O)OCC(=O)N(C(C)C)C(C)C)cc1
  A: i; B: 1; C: .; D: .; E: -2; F: 108; G: .

> Cn1cnnc1SCC(=O)NNC(=O)COc1ccc(Br)cc1
  A: .; B: .; C: -29; D: 103; E: -1; F: 115; G: .

> Cc1ccc2cc(C(c3nnnn3Cc3ccccc3)N3CCc4ccccc43)c(=O)[nH]c2c1 (stereo not drawn)
  A: i; B: 1.2; C: .; D: .; E: 5; F: 116; G: -2.9

> Cn1nc(-c2ccccc2)c(CO)c1Sc1ccccc1
  A: i; B: 0.94; C: 27; D: 122; E: -8; F: 100; G: .

> CN1/C(=C/C=C(/C#N)C(N)=O)C(C)(C)c2ccccc21
  A: i; B: 0.65; C: -30; D: 68; E: -10; F: 113; G: -0.1

> CC1=NN(/C(=N\c2nnc(C)s2)Nc2ccccc2)[C@H](c2cccc3ccccc23)S1
  A: i; B: 1.1; C: -10; D: 148; E: -4; F: 53; G: -0.8

> Cc1ccc(NCC(=O)N/N=C\c2ccc([N+](=O)[O-])o2)cc1
  A: i; B: 0.73; C: .; D: .; E: 7; F: 102; G: -1.8

# Some of the entries so far, with bars between the fields:
SMILES | HSV augment | HSV augment primary fold | INS promoter inh | INS promoter inh cell count | PKD1 kinase inh | RGS16-Gao | GALR2 agonist
O=C(COc1ccccc1)NNC(=O)c1cc2ccccc2o1 | i | 1.1 | -4 | 83 | 0 | 146 | -1.8
COC(=O)c1cc(OC)c(OC)cc1NC(=S)N1CCN(c2ccccc2)CC1 | i | 0.74 | . | . | -24 | 103 | -2.1
O=C(NCc1ccccn1)C1CCN(Cc2cccc(OCc3ccccc3)c2)CC1 | . | . | -33 | 115 | 5 | 109 | 0.8
CCC(OCC(O)CN1CCN(CCN2C(=O)c3cccc4cccc(c34)C2=O)CC1)c1ccccc1 (stereo not drawn) | i | 0.49 | 14 | 122 | -11 | 44 | -0.4
Cc1ncc(C[n+]2csc(C)c2C)c(N)n1 | i | 1 | . | . | 4 | 105 | .
COc1ccccc1N(C)S(=O)(=O)c1ccc(C(=O)OCC(=O)N(C(C)C)C(C)C)cc1 | i | 1 | . | . | -2 | 108 | .
Cn1cnnc1SCC(=O)NNC(=O)COc1ccc(Br)cc1 | . | . | -29 | 103 | -1 | 115 | .
Cc1ccc2cc(C(c3nnnn3Cc3ccccc3)N3CCc4ccccc43)c(=O)[nH]c2c1 (stereo not drawn) | i | 1.2 | . | . | 5 | 116 | -2.9
Cn1nc(-c2ccccc2)c(CO)c1Sc1ccccc1 | i | 0.94 | 27 | 122 | -8 | 100 | .
CN1/C(=C/C=C(/C#N)C(N)=O)C(C)(C)c2ccccc21 | i | 0.65 | -30 | 68 | -10 | 113 | -0.1
CC1=NN(/C(=N\c2nnc(C)s2)Nc2ccccc2)[C@H](c2cccc3ccccc23)S1 | i | 1.1 | -10 | 148 | -4 | 53 | -0.8
Cc1ccc(NCC(=O)N/N=C\c2ccc([N+](=O)[O-])o2)cc1 | i | 0.73 | . | . | 7 | 102 | -1.8

# (continued)
# Key to letters: A = HSV augment; B = HSV augment primary fold; C = INS promoter inh; D = INS promoter inh cell count; E = PKD1 kinase inh; F = RGS16-Gao; G = GALR2 agonist
> C=CCNc1oc(-c2cccs2)nc1C#N
  A: i; B: 0.92; C: -7; D: 114; E: -3; F: 102; G: -3.8

> O=[N+]([O-])c1cccc(-c2ccn[nH]2)c1
  A: i; B: 0.97; C: .; D: .; E: .; F: 112; G: .

> COc1ccc(-c2nnc(SCC(=O)c3cccs3)o2)c(OC)c1
  A: i; B: 1.1; C: -10; D: 130; E: -11; F: 94; G: -1.4

> O=C(Nc1ccc(F)c(Cl)c1)Nc1csc2ccccc12
  A: i; B: 0.79; C: .; D: .; E: .; F: 100; G: .

> CCOc1cc(/C=N\NC(=O)Cn2nnc3ccccc32)ccc1O
  A: i; B: 0.93; C: 29; D: 137; E: 0; F: 104; G: .

> COC(=O)c1oc2ccc(Cl)cc2c1NC(C)=O
  A: i; B: 1; C: 9; D: 93; E: -6; F: 114; G: -0.5

> COc1ccc(CN2CN(C3CCCC3)CSC2=S)cc1
  A: i; B: 1; C: -8; D: 94; E: -1; F: 119; G: .

> CCOc1ccccc1NC(=O)Cn1nnc(C(=O)Nc2ccccc2Cl)c1N
  A: .; B: .; C: 8; D: 171; E: -1; F: 117; G: 1.2

> Cc1ccc2c(c1C)NC(=O)CC(c1ccccc1O)=N2
  A: i; B: 1.1; C: .; D: .; E: .; F: 100; G: .

> O=[N+]([O-])c1ccc(-n2nnnc2CN2CCOCC2)cc1
  A: i; B: 1.1; C: .; D: .; E: 8; F: 100; G: .

> CCSc1ccc2nnc(-c3cccs3)n2n1
  A: i; B: 1.1; C: 9; D: 100; E: -1; F: 98; G: .

> Cc1cc2c(=O)[nH]c(Cc3ccccc3)nc2s1
  A: i; B: 0.97; C: 27; D: 61; E: 1; F: 92; G: 0.4

> O=[N+]([O-])c1cc([N+](=O)[O-])c2c(=Nc3ccccc3)n(-c3ccccc3)n(O)c2c1
  A: i; B: 0.81; C: .; D: .; E: 2; F: 90; G: .

> COc1ccc(CCNc2ccc(C)cc2)cc1
  A: i; B: 0.84; C: .; D: .; E: 6; F: 104; G: -2.0

> COc1ccc(-c2nc(C#N)c(NC(C)C)o2)cc1
  A: i; B: 1.1; C: 9; D: 141; E: 9; F: 97; G: 0.3

> CCOc1ccc(NC(=O)CCC(=O)N/N=C/c2ccc([N+](=O)[O-])s2)cc1
  A: i; B: 1.1; C: .; D: .; E: -9; F: 66; G: -0.9

> Cc1ccc(-c2nc3ncccn3c2Nc2ccccc2C)o1
  A: i; B: 1.1; C: 0; D: 123; E: -5; F: 96; G: .

> Cc1cccc(C)c1NC(=O)C(c1ccc(Cl)cc1Cl)N1CCCCC1 (stereo not drawn)
  A: i; B: 0.88; C: 10; D: 99; E: 3; F: 106; G: -1.2

> CCOc1cccc(-c2nnc3n2N=C(c2cc(OC)ccc2OC)CS3)c1
  A: i; B: 0.67; C: -256; D: 8; E: 4; F: 104; G: 1.0

> O=C(Nc1ccc(N2CCOCC2)c([N+](=O)[O-])c1)c1ccco1
  A: i; B: 1; C: .; D: .; E: -8; F: 104; G: .

> Cc1cccc(NC(=O)CSc2nc3c([nH]c4ccccc43)c(=O)n2C)c1
  A: i; B: 0.95; C: -42; D: 94; E: -1; F: 99; G: .

> CCOc1cc(NS(=O)(=O)c2ccc(OC)cc2)c(OCC)cc1NC(=O)c1ccco1
  A: i; B: 0.91; C: 62; D: 81; E: -5; F: 84; G: -0.6

> COc1cc([N+](=O)[O-])ccc1NC(=O)C[n+]1cccc(C(C)=O)c1
  A: i; B: 0.95; C: .; D: .; E: -2; F: 96; G: .

> CCCCCCn1c(SCC(=O)Nc2cc(C)on2)nc2ccccc2c1=O
  A: i; B: 1; C: .; D: .; E: 0; F: 85; G: -1.6

> CCc1ccc(-c2cc(C(=O)NCCCn3ccnc3)c3ccccc3n2)s1
  A: i; B: 1; C: .; D: .; E: -2; F: 110; G: .

> CCCCOc1ccc(C(=O)N/C(=C/C=C/c2ccccc2)C(=O)NC)cc1
  A: i; B: 1.1; C: 31; D: 130; E: 1; F: 101; G: -0.9

> O=C(c1nc(-c2ccccc2)n(-c2ccccc2)n1)N1CCN(S(=O)(=O)c2ccccc2)CC1
  A: i; B: 0.96; C: -50; D: 49; E: -5; F: 103; G: -0.6

> COC(=O)C1=C(C)N(Cc2ccco2)C(=O)N[C@@H]1c1cccc(C(F)(F)F)c1
  A: .; B: .; C: -32; D: 118; E: 7; F: 100; G: -1.2

> O=C(O)C1CCC(NSc2ccccc2[N+](=O)[O-])CC1 (stereo not drawn)
  A: i; B: 1.1; C: .; D: .; E: .; F: 97; G: .

> CCOC(=O)C1CCCN(c2c(NCCN3CCCCC3C)c(=O)c2=O)C1 (stereo not drawn)
  A: i; B: 0.97; C: .; D: .; E: -14; F: 106; G: -1.8

> C=CCc1cccc([C@@H]2[C@@H](C)CC[C@H]3C(=O)N4[C@@H](c5cc(OC)c(OC)c(OC)c5)c5[nH]c6ccccc6c5C[C@H]4C(=O)N23)c1
  A: .; B: .; C: -52; D: 56; E: -14; F: 106; G: -2.9

> COc1ccccc1C1CC(c2ccccc2)Nc2ncnn21 (stereo not drawn)
  A: i; B: 0.96; C: 14; D: 181; E: -1; F: 103; G: -2.0

> CCN1CCN(c2oc(/C=C/c3ccccc3)nc2C#N)CC1
  A: i; B: 0.99; C: .; D: .; E: .; F: 100; G: .

> COc1ccc(C(C)=O)cc1CSc1nnc(-c2ccccc2O)n1-c1ccccc1
  A: i; B: 0.94; C: -37; D: 102; E: 1; F: 102; G: -0.8

> Cc1cc2c(C)nc3ccccc3c2o1
  A: i; B: 0.93; C: 3; D: 85; E: -2; F: 99; G: -1.3

> O=C(NCc1ccco1)C1CCCN1C(=O)NCc1ccccc1 (stereo not drawn)
  A: i; B: 0.9; C: -7; D: 75; E: 1; F: 81; G: -0.9

> CC(=O)c1cccc(NC(=O)CN2C(=S)NC(C)(C)CC2C)c1 (stereo not drawn)
  A: i; B: 0.86; C: .; D: .; E: -3; F: 103; G: .

> CCn1cc(C(=O)O)c(=O)c2cc3c(cc21)OCO3
  A: .; B: .; C: 24; D: 113; E: 1; F: 148; G: 0.5

> C=CCOc1cccc(C2C(C(=O)c3ccc(C)o3)=C(O)C(=O)N2Cc2ccncc2)c1 (stereo not drawn)
  A: i; B: 1; C: .; D: .; E: 0; F: 163; G: -2.2
